Assay outcomes deposited in PubChem BioAssay by several laboratories.
BJeLR lethal – MLPCN primary cell-based screen for lethality selective to Ras in HRASV12 cells; BJeLR (HRASV12) viability, CellTiter-Glo ATP luminescence, 48 h; reference of the scale not given here; inhibition, % (concentration not given with the values); actives 0.17% (n = 300,000);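 active = replicate mean above 50%; inconclusive = above 50% but judged a plate artefact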;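 also: 50 nL library stock added to about 25 µL; numbers are from one replicate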
PrP UTR inh – inhibition of PrP 5' UTR reporter expression | cell-based PrP 5' UTR mRNA reporter, plate reader | inhibition, % (concentration not given with the values) | actives 0.35% (n = 340,000);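 active = every replicate at 50% or more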;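 also: 0 = median of the neutral control wells; tested in H4 reporter cells; numbers are from one replicate; inactives centre near -14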
Bead autofluor – compound fluorescence in toxin protease inhibitor counterscreen; compound autofluorescence counterscreen, microsphere flow cytometry; hits give high values; fluorescence intensity (test concentration not listed); actives 3.1% (n = 360,000);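 active = at least 3 SD above the mean of all compounds, about 16000 in these data; inconclusive = too few beads counted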;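 also: 100 nL of 1 mM stock went into each well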
Sa RN4220 lethal – growth inhibition of S. aureus RN4220, primary screen, OD600. 16 h. actives 0.33% (n = 330,000). AID 1259311, 2017. inhibition, % (test concentration not listed);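 active = z-score of -3 or lower and OD600 up to 0.18 on both plates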;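 also: plate controls were untreated cells for no effect and reference antibiotic for full effect; stock transfer was 100 nL into about 80 µL; one replicate is shown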
Sa ugtP lethal – growth inhibition of ugtP-null S. aureus, primary screen, RN4220 ugtP deletion, OD600 | 16 h; some inactives read as strong as hits | growth inhibition, % (no concentration beside the values) | actives 0.54% (n = 330,000) | AID 1259309, 2017;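 active = z-score under -3 and OD600 up to 0.15 on both plates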;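 also: plate controls were untreated wells for no effect and antibiotic for full effect; wells of about 80 µL received 100 nL stock; the first replicate is given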
Mtb hypoxia inh – PubChem AID 1159583. M. tuberculosis hypoxia-regulated fluorescent reporter, fluorescence. fluorescence inhibition, % (test concentration not listed). actives 0.1% (n = 300,000);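 active = 35 to 45% if threefold the growth effect, above 45% if 1.5-fold the growth effect; inactive = the rest, general growth blockers included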;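 also: wells of about 50 µL received 100 nL stock; 0% = vehicle wells and 100% = reference inhibitor wells; whole bacteria with a GFP reporter of the hypoxia response; strong numbers were not always called active; many hits fall short of the cut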
Mtb hypoxia inh growth – second read-out of Mtb hypoxia inh, no call of its own (marks repeat the call); growth inhibition, %; measured here: M. tuberculosis growth (absorbance);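 0% = vehicle and 100% = reference antibiotic; read after six days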
The depositor's hits bear a star; ? = inconclusive; / = no result given. An unsorted share of the library. Share with any hit: about 4%.

SMILES	BJeLR lethal	PrP UTR inh	Bead autofluor	Sa RN4220 lethal	Sa ugtP lethal	Mtb hypoxia inh	Mtb hypoxia inh growth
COc1ccccc1NC(=O)C(C)OC(=O)CCSc1ccc(F)cc1 (centres undefined)	-4	-19	4573	3.7	7	-1	2
CCOC(=O)c1nc(Nc2ccc(N3CCOCC3)cc2)c2ccccc2n1	-6	-5	3754	1.2	0	8	3
CCCn1nc(NC(=O)C(C)C)c2cc3cc(OC)ccc3nc21	-1	-8	3017	2.3	3	-14	-13
COc1cc(/C=C2\SC(N3CCc4ccccc4C3)=NC2=O)cc(OC)c1OC	12	-25	2327	6.3	-12	9	20
O=C(NCc1ccc(F)cc1)C(=O)NCC1CCCN1S(=O)(=O)c1ccccc1 (centres undefined)	4	-13	4584	0.3	4	-2	1
COc1ccc(C(=O)COC(=O)CCn2nnc(-c3cccs3)n2)cc1	10	1	?	6.4	10	3	-3
Cc1cc(C(=O)Nc2ccccn2)no1	-11	-34	8681	5.8	7	1	2
CC1CCN(C(=S)c2ccc(N(C)C)cc2)CC1	1	-18	3318	0.5	1	-9	-15
Cc1cc(C(=O)NN=Cc2cc(Br)ccc2OC(=O)c2ccccc2Cl)n[nH]1	/	/	/	2.8	17	4	8
CCn1ncc(C2=NOC(C(=O)N3CCN(c4ccccc4)CC3)C2)c1C (centres undefined)	4	-9	9652	-1.0	7	2	9
COc1ccccc1C1/C(=C(/O)c2ccc(Cl)cc2)C(=O)C(=O)N1CCN1CCOCC1 (centres undefined)	1	-21	3541	3.8	7	/	/
Fc1nc(F)c(F)c(NCCCNc2c(F)c(F)nc(F)c2F)c1F	4	-15	4557	-7.5	-43	8	-7
O=c1[nH]c(C2CCN(S(=O)(=O)c3ccc4c(c3)OCCO4)CC2)nc2c1nnn2Cc1c(F)cccc1Cl	-6	1	3667	5.5	-2	-18	1
CCOC(=O)C1CCCN(CCC(=O)Nc2cc(OC)ccc2OC)C1 (centres undefined)	0	-19	3872	4.1	4	13	12
O=C(Nc1cc2c3c(c1)CC(=O)N3CCC2)c1cccc(F)c1	6	-6	/	-1.6	-2	-2	6
O=C(CSc1nnc(-c2ccncc2)n1Cc1ccccc1)Nc1nccs1	-6	-12	?	-0.7	10	17	16
COc1ccc(-n2c(=S)[nH]c3cc(C(=O)NCc4ccco4)ccc3c2=O)c(OC)c1	-12	-5	3292	-2.4	19	4	6
Cc1ccc(NS(=O)(=O)c2c(C)nc3sccn3c2=O)c(C)c1	6	-27	6481	-9.1	-5	11	3
Oc1c(CN2CCN(c3ccccn3)CC2)cc(Cl)c2cccnc12	24	30	2259	3.2	-3	/	/
CC(C)C(NC(=O)/C(=C/c1ccco1)NC(=O)c1ccc(Br)o1)C(=O)O (centres undefined)	7	16	3239	2.5	4	10	-1
FC(F)(F)c1nc2ccccc2n2c(-c3c(Cl)cccc3Cl)nnc12	1	6	2643	-2.1	14	/	/
O=C(O)CCCCCNC(=O)Nc1ccc2c(c1)OCCO2	2	-19	2626	-11	-12	4	8
CN(c1nc(-c2ccccc2)cs1)C1CCS(=O)(=O)C1 (centres undefined)	-13	-43	5983	-1.0	-1	-1	10
Oc1ccc(Cc2ccccc2)c2cccnc12	/	/	3452	7.0	-3	2	-5
Cc1cc(=O)oc2cc(OCc3ccc(S(=O)(=O)N4CCOCC4)cc3)ccc12	-1	-14	8396	3.2	4	-2	-2
COc1cccc(C2=NOC(C(=O)NCCCn3ccnc3)C2)c1 (centres undefined)	4	-13	4297	3.4	6	7	9
Cc1ccc2c(n1)CC(C)(C)C/C2=N\O	3	-6	3541	/	/	/	/
Nc1nc2c(nnn2Cc2ccc(Cl)c(Cl)c2)c(=O)[nH]1	/	-2	3472	-0.5	3	1	7
O=C(Nc1cccc(Cl)c1)c1ccc(F)c(S(=O)(=O)NCc2cccs2)c1	-3	-16	2170	-9.1	-22	1	5
CC(C)(C)c1cc(NC(=O)CSc2nnc(NCc3ccccc3)s2)n(-c2ccccc2)n1	-10	-25	4323	0.7	-1	2	14
O=C(NC1CCCCC1)C(c1ccc(F)cc1)N(C(=O)c1cccs1)c1ccc2c(c1)OCO2 (centres undefined)	5	-21	8242	3.4	-2	7	1
COCCN(CCOC)S(=O)(=O)c1ccc(Cl)nc1	4	-24	4442	2.5	9	-1	-2
Brc1ccc(-c2nnc(-c3cccc(Br)c3)o2)cc1	-1	-49	2248	1.8	-14	/	/
O=C(Cc1ccc(F)cc1)Nc1ccc2[nH]ncc2c1	-1	-23	3699	5.0	9	12	-3
CCOc1ncccc1C(=O)Nc1ccc(S(=O)(=O)N2CC(C)CC(C)C2)cc1 (centres undefined)	/	-5	4015	1.6	0	3	-1
O=C(NCc1ccc2c(c1)OCO2)c1cc(S(=O)(=O)N2CCCCC2)ccc1F	7	-5	11450	0.2	1	-3	11
Cc1cc(C)c(C(=O)NCC(=O)c2ccccc2)c(C)c1	2	-20	6296	3.4	-4	4	10
CC1CCC(NC(=O)c2nn(C)c3c2CSc2ccccc2-3)CC1 (centres undefined)	6	-28	5585	5.3	7	17	5
CCOc1cc(C(=O)O/N=C(\N)c2ccccn2)cc(OCC)c1OCC	4	-7	3622	-0.2	-1	-3	-20
Cn1c(=O)oc2cc(S(=O)(=O)N3CCC(C(=O)N4CC=C(c5ccccc5)CC4)CC3)ccc21	/	61*	4025	5.6	15	5	8

Compounds listed so far with bromine (3):
SMILES	BJeLR lethal	PrP UTR inh	Bead autofluor	Sa RN4220 lethal	Sa ugtP lethal	Mtb hypoxia inh	Mtb hypoxia inh growth
Cc1cc(C(=O)NN=Cc2cc(Br)ccc2OC(=O)c2ccccc2Cl)n[nH]1	/	/	/	2.8	17	4	8
CC(C)C(NC(=O)/C(=C/c1ccco1)NC(=O)c1ccc(Br)o1)C(=O)O (centres undefined)	7	16	3239	2.5	4	10	-1
Brc1ccc(-c2nnc(-c3cccc(Br)c3)o2)cc1	-1	-49	2248	1.8	-14	/	/

Additional entries.
SMILES	BJeLR lethal	PrP UTR inh	Bead autofluor	Sa RN4220 lethal	Sa ugtP lethal	Mtb hypoxia inh	Mtb hypoxia inh growth
CN1C2C=C3C(C#N)=C(N)C(C#N)(C#N)[C@@H](c4ccc(Cl)cc4)[C@@H]3C1CC2 (some centres undefined)	-1	-25	4105	5.5	9	/	/
O=C(O)C1C2CCC(C2)C1C(=O)NCCc1cccc(Cl)c1 (centres undefined)	27	-26	3557	5.2	7	11	13
CN(Cc1nccs1)C(=O)C1CCC(=O)N(Cc2ccccc2F)C1 (centres undefined)	7	-7	4547	0.6	4	3	3
NC(=O)C1CCN(CC(=O)Nc2nc(-c3ccccc3)cs2)CC1	1	13	3656	2.5	7	9	-6
CC(C)c1ccc(-c2nn[nH]n2)cc1	-1	-16	?	0.3	6	4	8
CCN(CC)S(=O)(=O)c1cccc(-c2nnc(SCC(=O)NC3CCCC3)n2N)c1	21	-21	20557*	4.3	4	-1	6
CC(=O)c1ccc(NC(=O)CSc2n[nH]c(-c3cccnc3)n2)cc1	-12	-6	3436	3.0	-4	-3	-6
COc1ccc(-c2noc(CCC(=O)NC3CCCC3)n2)cc1	-5	-20	4168	-0.1	3	9	2
COc1ccc(Oc2coc3cc(OC(=O)/C=C/c4ccc(F)cc4)ccc3c2=O)cc1	-1	2	10382	16	4	5	0
O=[N+]([O-])c1ccc(-c2nc(-c3ccncc3)no2)cc1	-2	-36	3819	-1.4	-3	6	-3
CNC(=O)NC(=O)C(NC1CCCc2ccccc21)c1ccccc1 (centres undefined)	-3	-1	3537	/	/	/	/
CCCCC(=O)Nc1cccc(NC(=S)NC(=O)Cc2ccccc2)c1	-3	-11	2523	2.7	2	-4	-5
O=C(c1cc(F)c(F)cc1Cl)N1CCN(c2ncccn2)CC1	1	-14	3484	2.4	7	1	10
COc1cc(/C=N/NC(=O)c2ccc3nc[nH]c3c2)ccc1O	7	-20	4978	/	/	/	/
COc1ccc(OC)c(C(=O)c2ccc(C(=O)Nc3ccccc3)cc2)c1	-1	-18	1894	3.8	-3	-7	-3
CCOc1ccc(NC(=O)c2cccc(-n3cnnn3)c2)cc1	-2	-16	23535*	3.1	5	4	11
Cc1ccc2c(c1)C1(OCCCO1)C(=O)N2	-16	-9	3980	-1.8	6	2	14
COc1cc(NC(=O)c2cccc(Cl)c2)c(OC)cc1NC(=O)CN1CCOCC1	5	-6	2491	-6.5	-5	12	11
Cc1ccc(C)c(N2CCN(C(=O)Cc3ccc(-n4c(=O)[nH]c5ccsc5c4=O)cc3)CC2)c1	-5	-14	11677	2.0	7	-4	4
COc1ccccc1NC(=O)/C(=C\c1cccnc1)NC(=O)c1ccccc1	-7	-9	5318	4.4	3	8	9
CC(Oc1ccc(Cl)cc1)C(=O)Nc1ccccc1N1CCOCC1 (centres undefined)	/	-9	3697	1.9	4	8	19
O=C(O)c1sc2cccc(Cl)c2c1Cl	2	-12	4828	7.6	-5	6	7
O=C(COC(=O)c1cc(-c2cccc(Br)c2)nc2ccccc12)NCC1CCCO1 (centres undefined)	-5	-6	3336	-13	-10	-12	-4
Cc1ccccc1NC(=S)N/N=C1\CC(C)(C)Oc2ccc(O)cc21	-10	-11	3371	/	/	/	/
N#CCCCSC1=C(C#N)C(c2ccccc2Cl)CC(=O)N1 (centres undefined)	4	-23	5939	8.5	-2	9	6
Cc1onc(-c2ccccc2Cl)c1C(=O)Nc1nnc(-c2ccc(F)cc2)s1	15	-23	4274	4.3	2	-2	4
CC(=O)N1CCN(S(=O)(=O)c2cccc(C(=O)Nc3nc4c(s3)CCCC4)c2)CC1	-6	-22	3276	-4.0	-21	-6	5
CCCCc1ncc(CN2CCC(n3nccc3NC(=O)c3ccccc3Cl)CC2)[nH]1	16	-11	3881	-1.4	3	-3	3
O=C(NN=C(Cc1ccccc1)Cc1ccccc1)c1ccccc1O	0	-7	4152	44	30	-1	8
O=C(NC1CCN(C(=S)Nc2ccc(Cl)cc2)CC1)C1CCCCC1	-7	-4	3105	6.9	10	11	0
O=C(C[n+]1ccccc1)c1ccc(Cl)cc1	-6	/	3748	4.3	3	5	5
COC(=O)C1=C(c2ccc(F)cc2OCc2ccccc2)CC2CCC1N2C(=O)NCc1ccc(N(C)C)cc1 (centres undefined)	/	/	/	-4.7	13	2	5
Cc1cc(Nc2cccc([N+](=O)[O-])c2)n2c(nc3ccccc32)c1C#N	21	-6	2851	16	8	-6	-1
Cc1ccc2nc(NC(=O)c3ccc(Br)o3)sc2c1	13	-69	2986	6.1	2	12	8
Cc1[nH]c2ccccc2c1C1(O)C(=O)N(Cc2ccc3c(c2)OCO3)c2ccccc21 (centres undefined)	-13	-19	10285	4.7	-1	3	8
COC(=O)/C(C#N)=C/c1c(N2CCN(c3ccc(OC)cc3)CC2)nc2c(C)cccn2c1=O	2	-15	3924	-4.7	1	5	1
CCC(=NCC1CCCO1)c1c(O)n(-c2ccc(Cl)cc2)c(=O)[nH]c1=O (centres undefined)	11	-8	3081	2.1	5	/	/
C=CCNc1cnn(CC(C)=O)c(=O)c1Br	/	-23	2824	5.4	-3	/	/
Oc1cc(-c2ccccc2)c2ccccc2c1	4	-23	2137	-6.3	18	9	-1
CCN(CC)c1ccc(C(=O)OCC(=O)N2CCCC2)cc1	-6	-12	5232	4.2	4	7	-1
Cc1ccc(-n2cc(C(=O)c3ccc(N4CCN(C)CC4)cc3)nn2)cc1Cl	8	-66	4119	-0.6	5	8	1
CC1CCN(CCc2nc3cc(NS(=O)(=O)c4ccccc4)ccc3n2C)CC1	-6	3	4717	-0.4	-7	7	12
O=C(NN=Cc1cccc(OCc2ccccc2)c1)c1cccs1	/	/	/	-0.3	-3	15	12
COC(=O)c1ccc(NC(=S)N2CCN(C)CC2)cc1	3	-3	4329	-0.4	8	12	1
COc1ccccc1NC(=O)CN1CCC(c2nc3ccc(C)cc3[nH]2)CC1	3	-35	5651	3.1	9	9	2

2 entries from above in a different format:
canonical_smiles: O=C(NN=Cc1cccc(OCc2ccccc2)c1)c1cccs1
  BJeLR lethal: /
  PrP UTR inh: /
  Bead autofluor: /
  Sa RN4220 lethal: -0.3
  Sa ugtP lethal: -3
  Mtb hypoxia inh: 15
  Mtb hypoxia inh growth: 12
canonical_smiles: Cc1ccc(-n2cc(C(=O)c3ccc(N4CCN(C)CC4)cc3)nn2)cc1Cl
  BJeLR lethal: 8
  PrP UTR inh: -66
  Bead autofluor: 4119
  Sa RN4220 lethal: -0.6
  Sa ugtP lethal: 5
  Mtb hypoxia inh: 8
  Mtb hypoxia inh growth: 1
